# Polio RdRp inh = inhibitors of poliovirus RNA polymerase binding and polymerization; poliovirus polymerase elongation, fluorescence polarization; hits give low values; % elongation, % (compound at 16.7 µg/mL); actives 0.66% (n = 150,000); AID 588519; in the data active = % elongation below about 90%; also: some results filed as inactive read as strong as hits
# Target sequence (P03300 1749-2209 limits assumed): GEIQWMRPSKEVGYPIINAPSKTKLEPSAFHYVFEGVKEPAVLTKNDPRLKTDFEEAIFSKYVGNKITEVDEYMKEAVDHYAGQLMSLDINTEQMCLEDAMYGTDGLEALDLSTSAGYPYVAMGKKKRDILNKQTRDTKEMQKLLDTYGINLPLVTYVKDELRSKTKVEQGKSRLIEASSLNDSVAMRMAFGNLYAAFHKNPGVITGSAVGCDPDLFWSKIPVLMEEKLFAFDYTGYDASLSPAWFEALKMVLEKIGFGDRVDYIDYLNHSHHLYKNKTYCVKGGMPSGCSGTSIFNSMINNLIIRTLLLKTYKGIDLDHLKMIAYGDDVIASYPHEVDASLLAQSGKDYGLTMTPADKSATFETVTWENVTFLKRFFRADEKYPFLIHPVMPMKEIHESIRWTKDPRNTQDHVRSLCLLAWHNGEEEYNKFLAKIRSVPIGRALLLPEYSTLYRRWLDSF
# Polio RdRp inh intensity = further read-out of Polio RdRp inh, marked with its call; % elongation; measured here: total intensity read-out; formula for this scale not given here;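 total fluorescence in place of polarization; lower means less elongation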
# * = called active by the depositor. This is a subset; the hit share may differ from the screen's.
mol,Polio RdRp inh,Polio RdRp inh intensity
Cc1ccc(Cc2c(C)nc3nc(SCC(=O)NC4CCC(C)CC4)nn3c2C)cc1 (centres undefined),108,95
CN1C(=O)C2(SCC(=O)N2c2ccc(F)cc2)c2ccccc21 (centres undefined),113,107
Cc1ccc(NC(=O)c2cn(-c3ccccc3)nc2-c2ccccc2)cc1,103,101
COc1ccc(-n2nc3c(N4CCC(C(=O)NCCc5ccccc5)CC4)nnc(C)c3c2C)cc1,110,110
CCOc1ccc(-n2c(=O)c3c4c(sc3n(Cc3cccc(Cl)c3)c2=O)CCCC4)cc1,106,112
CCc1ccccc1NC(=O)C(=O)NCCc1sc(-c2cccc(C)c2)nc1C,111,112
CC(=O)c1ccc(NC2=NS(=O)(=O)c3ccccc32)cc1,100,101
COc1ccc(C(=O)Oc2ccc(C(c3c(C)[nH][nH]c3=O)c3c(C)[nH][nH]c3=O)cc2OC)cc1,111,115
COc1ccc(C)cc1NC(=O)c1ccc(=O)n(Cc2ccccc2)c1,99,101
CCc1ccc2oc(-c3ccc(NC(=O)c4ccc(OC)c(Br)c4)cc3)nc2c1,105,115
COc1ccc(C2=NN(CC(=O)NCCc3ccccc3)C(=O)CC2)cc1,104,103
CCOc1ccc(C(CC(=O)O)N2Cc3ccccc3C2=O)cc1OC (centres undefined),111,109
COC(=O)c1ccc(NC(=O)n2ncc3c(C)cccc32)cc1,112,112
CCN(CC)c1ccc(NC(=O)CN2C(=O)c3cccnc3Sc3ccccc32)c(C)c1,111,118
Cc1cccc(N(C)c2nc3ccc(C(=O)c4ccccc4)cc3n3c(C)nnc23)c1,97,100
Cc1ccc(-c2cn3ccc(C)cc3n2)cc1,107,109
O=c1c2sc3ccccc3c2n(Cc2cccc(F)c2)c(=O)n1CCc1ccccc1,101,102
O=C(CSc1cn(CC(=O)N2CCOCC2)c2ccccc12)Nc1ccccc1,102,105
Cc1cc(=O)n(Cc2ccc(Br)cc2F)c2c1c(C)nn2-c1ccccc1,109,115
COc1ccc(C2C=C(c3ccccc3)Nc3nc(NC(=O)/C=C/c4ccccc4OC)nn32)cc1 (centres undefined),101,110
CCc1nnc(NC(=O)CSc2nc3c([nH]c4ccccc43)c(=O)n2-c2ccc(Cl)cc2)s1,107,114
O=C(Nc1ccc2nc(SCCOc3ccccc3Cl)sc2c1)c1cccs1,107,107
COc1ccc(-c2nc(Cn3c(SCc4ccc(F)cc4)nc4cccnc43)c(C)o2)cc1,113,108
COc1ccc(N2C(=O)CSC23C(=O)N(C)c2ccccc23)cc1Cl (centres undefined),99,107
COc1ccc(-n2c(SCC(=O)NCc3ccc(Cl)cc3)nc3ccsc3c2=O)cc1,102,109

# 6 entries picked at random from those above, as already listed:
mol,Polio RdRp inh,Polio RdRp inh intensity
COc1ccc(-n2nc3c(N4CCC(C(=O)NCCc5ccccc5)CC4)nnc(C)c3c2C)cc1,110,110
COc1ccc(N2C(=O)CSC23C(=O)N(C)c2ccccc23)cc1Cl (centres undefined),99,107
CCc1ccc2oc(-c3ccc(NC(=O)c4ccc(OC)c(Br)c4)cc3)nc2c1,105,115
O=C(CSc1cn(CC(=O)N2CCOCC2)c2ccccc12)Nc1ccccc1,102,105
CC(=O)c1ccc(NC2=NS(=O)(=O)c3ccccc32)cc1,100,101
COc1ccc(C2=NN(CC(=O)NCCc3ccccc3)C(=O)CC2)cc1,104,103

# (next part)
mol,Polio RdRp inh,Polio RdRp inh intensity
CCc1ccc(-c2nn(CC(=O)NC3CCCC3)c3c2cnc2ccc(F)cc23)cc1,112,115
Cc1nc(-c2ccc(C)c(S(=O)(=O)N3CCC(C(=O)NCc4ccc(Cl)cc4)CC3)c2)no1,106,101
CCN(Cc1ccccc1)C(=O)Cn1c(=O)n(-c2cccc(C)c2)c(=O)c2c1c1cc(C)ccc1n2C,108,109
COc1cc(NC(=O)NC(C)c2c(-n3cccc3)sc3c2CCN(C)C3)cc(OC)c1 (centres undefined),109,113
Cc1cccc(N2CCN(C(=O)Nc3ccc(F)cc3)CC2C)c1 (centres undefined),109,109
Cc1cc2c(cc1S(=O)(=O)Nc1cccc(C(F)(F)F)c1)OCCN2C,111,114
COc1ccc(Nc2ncc3c(n2)CCN(Cc2sccc2C)C3)c(OC)c1,101,110
Cc1nn(-c2ccc(N3CCOCC3)nn2)c(C)c1CCC(=O)NCc1ccc(F)cc1,112,107
CCc1ccccc1NC(=O)CCC(=O)N1CC(C)Oc2ccc(C)cc21 (centres undefined),110,113
Cn1cc(S(=O)(=O)N2CCCCCC2)cc1C(=O)Nc1ccc(Cl)c(C(F)(F)F)c1,109,106
O=C(NCCc1ccc(Cl)cc1)c1ccc2c(c1)N(Cc1ccc(F)cc1Cl)C(=O)CS2,108,110
CCCN1CCN(C(=O)Cn2ncc3c4ccccc4n(Cc4cccc(Cl)c4)c3c2=O)CC1,149,172
Cc1cccc(C(=O)NCC(c2ccc3c(c2)OCO3)N2CCOCC2)c1 (centres undefined),102,106
CCCC(C(=O)NCc1cccc(Cl)c1)N1Cc2ccccc2C1=O (centres undefined),110,112
Cc1cccc(C)c1Nc1c(-c2ccccn2)nc2ccc(Cl)cn12,113,107
Cc1cccc(-n2c(-c3ccco3)nc3c(cnn3-c3ccccc3C)c2=O)c1,107,105
COc1ccccc1CNC(=O)CSc1cc(=O)n(C)c2ccccc12,106,111
CCNC(=O)c1ccc(CSc2nc3cccnc3n2Cc2ccc(OC)cc2)cc1,104,91
O=C(Cn1ncc2c3ccccc3n(Cc3ccc(F)cc3)c2c1=O)NCc1ccccn1,105,105
Cc1c(C(=O)Nc2ccccc2)sc2nc(-c3cc4ccccc4oc3=O)[nH]c(=O)c12,102,106
Cc1ccc2c(c1)N(C(=O)CCC(=O)Nc1ccc(F)cc1F)CC(C)O2 (centres undefined),106,107
Cc1c(NC(=O)c2ccc(Cl)cc2)cc(C(C)C)c(O)c1S(=O)(=O)c1ccccc1,103,106
O=C(NCc1ccc(Cl)cc1)C(=O)Nc1ccc(Br)cc1,102,104
Cc1nc2nc(C)c(NS(=O)(=O)c3ccc(F)cc3)c(=O)n2[nH]1,107,113
CN(Cc1ccccc1)S(=O)(=O)c1ccc(NC(=O)c2cc(=O)c3ccccc3o2)cc1,102,99
N#C/C(=C\c1ccc(Cl)cc1)c1nc(-c2cc3ccccc3oc2=O)cs1,109,115
Cc1cc(C)n2c(Nc3ccccc3)c(-c3ccccc3)nc2n1,106,108
O=C(O)CC(NS(=O)(=O)c1ccc(Br)s1)c1ccccc1 (centres undefined),98,106
Cn1c(=O)c2c(SCC(=O)NCc3ccc(F)cc3)nc(-c3ccccc3Cl)nc2n(C)c1=O,104,112
O=C(CN1CCN(Cc2cccc(Cl)c2)C1=O)NCc1ccc(F)cc1,108,110
Cc1ccc(C)c(NC(=O)Cn2c(-c3nonc3N)nc3ccccc32)c1,115,117
CCSc1ncc(Cl)c(C(=O)Nc2sc3c(c2C(=O)NCCCOC)CCCC3)n1,116,107
CCOC(=O)Cn1c(=O)oc2cc(S(=O)(=O)Nc3ccccc3F)ccc21,102,104
CCOc1ccc(CNC(=O)c2ccc(Sc3ccc(C)cc3)c(N)c2)cc1OC,110,102
CCOc1ccc(OCC)c(NC(=O)CN(c2ccc(C)cc2)S(=O)(=O)c2c(C)n[nH]c2C)c1,111,111
O=C(CSc1nccn1C1CCCC1)Nc1cc(C(F)(F)F)ccc1Cl,110,107
COc1ccc2oc(=O)c(-c3csc(/C(C#N)=C/c4ccc(F)cc4)n3)cc2c1,104,108
Cc1cccc(N(C)S(=O)(=O)c2nnc(NC(=O)C(C)(C)C)s2)c1,110,98
Cc1c(Cl)cccc1-n1ncc(C(=O)NCc2cccs2)c1C1CCN(C(=O)OC(C)(C)C)CC1,103,108
CCc1ccccc1NC(=O)CCc1c(C)nc2cc(-c3ccccc3)nn2c1C,110,112
COc1ccc(Cl)cc1NC(=O)CN1C(=O)C(C)(C)c2cc(S(=O)(=O)N3CCCCC3)ccc21,104,107
Cc1cccc(N2CCN(C(=O)CCn3c(=O)c4cccn4c4cccnc43)CC2C)c1 (centres undefined),113,106
COc1ccc(NC(=O)Nc2cc(C(=O)NCc3ccc(C)cc3)ccc2N2CCCC2)cc1,105,104
CCN1CCN(CCCNC(=O)Cn2nc(C)n3c(cc4c(OC)cccc43)c2=O)CC1,108,109
CCOc1ccc(NC(=O)c2c(NCc3cccnc3)sc3c2CCC(C)C3)cc1 (centres undefined),100,103
O=C(c1ccccc1Cl)N1CCCCC1CCN1CCOCC1 (centres undefined),110,108
CCc1nnc(SCc2ccc(F)cc2Cl)c2cc3sc(C)cc3n12,110,113
Cc1ccc(C)c(Cn2c(=O)n(CCCCCC(=O)NCc3ccc4c(c3)OCO4)c(=O)c3sccc32)c1,107,113
CCn1cc(C(=O)OCC(=O)Nc2cc(OC)cc(OC)c2)c(=O)c2ccc(C)nc21,103,107
Cc1ccc2cccc(NC(=O)c3ccc(-c4cccc(Cl)c4Cl)o3)c2n1,104,105

# (continued)
mol,Polio RdRp inh,Polio RdRp inh intensity
COc1ccc(Br)cc1CNC(=O)c1cc2c(=O)n(C)c3ccccc3c2s1,109,112
Cc1cc(C)c(NC(=O)C(C)n2c(=O)cc(C)c3c(C)nn(-c4ccccc4)c32)c(C)c1 (centres undefined),109,103
Cc1ccc(S(=O)(=O)NCc2nc3nc(C)cc(C)n3n2)c(C)c1,103,104
Cc1ccc(-c2nc(CS(=O)CC(=O)NCCc3ccc(Cl)cc3)c(C)o2)cc1 (centres undefined),110,111
COC(=O)c1cc2oc3ccccc3c2n1CC(=O)Nc1ccc(C)c(F)c1,105,104
CCN(C(=O)CSc1nc2ccccc2n1CC(=O)NCc1ccc(OC)cc1)c1ccccc1,107,106
COc1ccccc1C(=O)N1CCCCC1CCN1CCOCC1 (centres undefined),112,112
CNS(=O)(=O)c1ccc(NC(=O)c2nc3nc(C)cc(C(F)F)n3n2)cc1,106,110
O=C(Cn1ncc2c([nH]c3ccccc32)c1=O)NCCCN1CCN(c2ccccc2)CC1,108,109
Cc1ccc(O)c(NC(=O)c2noc3c2CCCCC3)c1,103,110
CC(=O)Nc1ccc(NC(=O)c2ccc3c(c2)N(Cc2cccc(Cl)c2)C(=O)c2ccccc2S3=O)cc1 (centres undefined),103,105
CCc1ccc(-n2c(=O)c3c4c(sc3n(CC(=O)NCCCOC)c2=O)CCCC4)cc1,102,103
Cc1ccc(NC(=O)CN2C(=O)COc3ccc(S(=O)(=O)Nc4ccccc4)cc32)c(C)c1,115,114
COc1ccc(-c2nc(Cn3c(SCc4ccc(C)cc4)nc4cccnc43)c(C)o2)cc1OC,110,99
COc1ccc(CCNC(=O)c2ccc3c(c2)N(Cc2ccc(F)cc2)C(=O)c2ccccc2S3(=O)=O)cc1OC,105,104
Cc1ccc(Cl)cc1NC(=O)N1CCC(CN2CCc3ccccc3C2)CC1,104,104
Cc1nc2ncnn2c(C)c1CCC(=O)NCc1ccccc1Cl,107,109
CCOC(=O)c1c(NC(=O)COc2ccccc2)sc(C(C)=O)c1C,94,103
CCOC(=O)c1cc2c(=O)n3ccccc3nc2n(CCCOC)c1=NC(=O)c1cc2ccccc2o1,96,116
COc1ccc(Cc2c(C)nn(-c3nc(C)c(C(=O)Nc4ccc(C)cc4C)s3)c2C)cc1,98,97
Cc1ccc(Cn2c(=O)n(Cc3ccccc3Cl)c(=O)c3ccccc32)cc1,106,105
Cc1cccc(N(Cc2cc3ccccc3[nH]c2=O)C(=O)c2cccc(Cl)c2)c1,120,119
CCC(=O)N1CCc2cc(S(=O)(=O)CCC(=O)N3CCN(c4ccccc4F)CC3)ccc21,110,110
Cc1ccc(Cl)cc1NC(=O)c1sc2nc(C)c(C)c(C)c2c1N,104,103
Cc1ccc(-n2c(=O)c3ccc(C(=O)NCc4ccccc4Cl)cc3n(CC(=O)Nc3cccc(Cl)c3)c2=O)cc1,103,97
Cc1ccc(OCC(=O)Nc2ccc3nc(SCc4ccccc4)sc3c2)cc1,104,108
CCCCN(CCCC)C(=O)C1CCN(S(=O)(=O)c2cccc3nsnc23)CC1,105,101
Cc1ccc(NS(=O)(=O)c2ccc3c(c2)n(C)c(=O)n3C)cc1C,111,112
CCOc1ccccc1CNC(=O)c1sc2ncccc2c1-n1cccc1,101,106
Cc1nn2c(=O)cc(COC(=O)c3ccc(NC(=O)c4cccs4)cc3)nc2s1,103,104
Cc1ccc2sc(N(Cc3cccnc3)C(=O)C3COc4ccccc4O3)nc2c1C (centres undefined),111,108
CCc1ccccc1NC(=O)c1cc2sc(Cl)cc2n1CC,101,105
Cc1cccc(CCNC(=O)c2cnc3c(C)cccn3c2=O)c1,106,108
COc1cc2ccccc2cc1C(=O)Nc1ccc2oc(-c3ccc(F)cc3Cl)nc2c1,101,106
CCc1cc2c(cc3c(=O)n(CC(=O)NCCOC)nc(CC)n32)s1,109,112
Cc1ccc(CN2CCCN(CC(=O)Nc3ccc(C)cc3C)S2(=O)=O)cc1,111,110
O=S(=O)(c1ccc2nc(N3CCN(c4ccccc4F)CC3)ccc2c1)N1CCCCC1,100,94
Cc1ccccc1NS(=O)(=O)c1nnc(NC(=O)c2ccco2)s1,105,109
COc1cc(NC(=O)c2cccc3c2C(=O)N(C2CCCCC2)C3)cc(OC)c1OC,105,106
COc1ccc(NC(=O)CSCc2cc(=O)c3cc(Cl)ccc3[nH]2)cc1,100,104
CC1=C(c2ccc(C)c(C)c2)S(=O)(=O)N=C1N1CCC(C(=O)NCc2ccc(N(C)C)cc2)CC1,108,115

# Screening results as filed in PubChem BioAssay.
